# TRPV1 potentiator – HTS Assay for Compounds that Act as Potentiators of the Vanilloid Receptor 1 | Transient receptor potential cation channel subfamily V member 1 (Homo sapiens), Q8NER1 | TRPV1-expressing cells, Fluo-8 calcium influx, capsaicin EC20 potentiation; host cell line not named in the record; control for the full effect not named in the record | potentiation, % at 8.33 µM | hit rate 0.02% among 320,000; active means potentiation above 80%; inconclusive means 30% to 80%; inactive means below 30%; further: 0% is about no effect
# Target sequence (Q8NER1 whole entry, looked up): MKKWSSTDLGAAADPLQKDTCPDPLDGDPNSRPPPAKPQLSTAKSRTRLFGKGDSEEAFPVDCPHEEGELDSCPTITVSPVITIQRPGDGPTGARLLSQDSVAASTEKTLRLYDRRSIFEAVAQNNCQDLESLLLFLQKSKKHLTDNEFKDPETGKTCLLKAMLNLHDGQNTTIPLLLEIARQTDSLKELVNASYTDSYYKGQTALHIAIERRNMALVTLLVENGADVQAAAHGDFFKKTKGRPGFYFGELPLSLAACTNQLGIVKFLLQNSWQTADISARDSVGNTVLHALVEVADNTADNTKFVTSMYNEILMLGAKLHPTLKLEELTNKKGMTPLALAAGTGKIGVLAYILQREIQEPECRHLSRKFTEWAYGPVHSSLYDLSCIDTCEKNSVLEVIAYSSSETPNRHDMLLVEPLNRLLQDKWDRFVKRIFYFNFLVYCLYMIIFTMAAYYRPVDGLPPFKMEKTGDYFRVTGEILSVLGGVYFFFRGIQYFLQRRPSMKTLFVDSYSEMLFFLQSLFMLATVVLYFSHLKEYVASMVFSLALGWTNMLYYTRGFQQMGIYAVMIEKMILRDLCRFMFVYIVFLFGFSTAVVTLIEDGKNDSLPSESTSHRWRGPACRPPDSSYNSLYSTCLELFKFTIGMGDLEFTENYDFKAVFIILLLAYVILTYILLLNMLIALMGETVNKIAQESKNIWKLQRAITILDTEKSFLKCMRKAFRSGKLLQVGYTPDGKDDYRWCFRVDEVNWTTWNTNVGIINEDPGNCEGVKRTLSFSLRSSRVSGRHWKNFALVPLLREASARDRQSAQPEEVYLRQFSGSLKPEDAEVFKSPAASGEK
#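 TRPV1-expressing cells were cultured overnight at 35.5C and loaded with Fluo-8 calcium dye for 40 to 90 min at room temperature. After a 10 s baseline, compound was added and calcium influx was read kinetically for 3 min (ex 480/em 520 nm).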
# gsp ag – qHTS for Agonist of gsp, the Etiologic Mutation Responsible for Fibrous Dysplasia/McCune-Albright Syndrome: qHTS; gsp mutant cells, cAMP HTRF, 30 min; control for the full effect not named in the record; Potency, µM (doses to about 76.9 µM), for the others: at the top dose activation (cAMP increase), hits mostly activators; hit rate 0.13% among 340,000; active = well fitted activation curve with a large enough effect; inconclusive = small, poorly fitted or top-dose-only effect, or another doubt; inactive = no such curve, though single readings can be large or run the other way; cell line not stated here;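 further: phosphodiesterase inhibitor Ro 20-1724 added with compounds to block cAMP breakdown; potency means the concentration at half of the fitted maximal effect; nearly all actives have a fitted effect of over 60% in size; about a fifth of the inactives were tested at one dose only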
#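 Cells in DMEM/10% FBS with G418 were pretreated with compounds in DMSO plus […] (300 uM stock) for 30 min at 37C. cAMP was measured by HTRF (cAMP-d2 plus anti-cAMP antibody-K) after 30 min at room temperature.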
# TRPML1 inh – qHTS for Inhibitors of the Human Mucolipin Transient Receptor Potential 1 (TRPML1) | TRPML1-inducible cells, Ca2+ dye fluorescence, FDSS; hits give low values; inhibition of EC80 agonist-evoked calcium signal | hit rate 0.02% among 390,000 | Mucolipin-1 (Homo sapiens), Q9GZU1 | activity change, negative = inhibition, % (test concentration not listed) | AID 624415, 2012; in the data active means activity change below about -50%; inconclusive means about -30% to -50%; inactive means above about -30%;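 further: stimulus is agonist 54-4 at its EC80 concentration; on the % scale 0 is the no-effect control and ±100 the full control effect; compound concentration not given in the record; the text of the record puts the active cut at -80%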
#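 TRPML1-DL cells, Tet-induced overnight (~16 h, 37 °C) at 1,500 cells/well, were loaded with Ca8 no-wash dye plus quencher for 45-90 min at room temperature. Compounds were pinned during FDSS kinetic reading; agonist 54-4 at EC80 (4 uM final) then added.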
# Sfp inh – qHTS Assay for Inhibitors of Bacillus subtilis Sfp phosphopantetheinyl transferase (PPTase). hit rate 3.5% among 310,000. Potency, µM, for inactives: max response, negative = inhibition, most hits filed as inhibitors. 4'-phosphopantetheinyl transferase ffp (Bacillus subtilis), Q9F4F7. Biochemical Sfp PPTase activity, qHTS; active means well fitted inhibition curve with a large enough effect; inconclusive means small, poorly fitted or top-dose-only effect, or another doubt; inactive means no such curve, though single readings can be large or run the other way;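 further: the enzyme is Sfp with the accession as filed and its product quenches rhodamine fluorescence; potency means the concentration at half of the fitted maximal effect; 0% = enzyme reaction without inhibitor and -100% = no enzyme wells; top concentration of the series not given in the record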
#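 With Hepes-Na pH 7.6 buffer containing 10 mM MgCl2, Sfp (15 nM) modified BHQ-2-YbbR (12.5 uM) using rhodamine-CoA (5 uM). Two reads 30 minutes apart at 525/598 nm yielded each well's rate.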
# gsp antagonist – qHTS for Antagonists of gsp, the Etiologic Mutation Responsible for Fibrous Dysplasia/McCune-Albright Syndrome: qHTS; gsp-mutant cells, cAMP HTRF, 30 min; control for the full effect not named in the record; Potency, µM (doses to about 76.9 µM), for the others: top-dose activity change, negative = inhibition, hits mostly inhibitors; hit rate 0.4% among 340,000; active = falling curve of any shape with a large fitted effect; inconclusive = falling curve, mostly with a smaller effect; inactive = flat or rising curve; cell line not stated here;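 further: intracellular cAMP measured with PDE inhibitor Ro 20-1724 present during compound exposure; potency means the concentration at half of the fitted maximal effect; on the % scale 0 is the no-effect control and ±100 the full control effect; nearly all actives have a fitted effect of over 65% in size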
#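 Cells in G418 medium, seeded 16-24 h, 37C; buffer exchange to DPBS + 1 mM CaCl2, 0.5 mM MgCl2, 0.05% BSA; cpds in DMSO + […] (300 uM stock), 30 min 37C; HTRF cAMP detection.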
# ClpP mod – qHTS Assay for Activators of ClpP; ATP-dependent Clp protease proteolytic subunit (Bacillus subtilis (strain 168)), P80244; purified B. subtilis ClpP, FRET peptide cleavage, 20 min; Potency, µM (titrated, usually from 57.5 µM), for the others: at the top dose activity change, negative = active; hit rate 1.9% among 340,000; AID 651965, 2013; active = well fitted falling curve with a large enough effect; inconclusive = small, poorly fitted or top-dose-only effect; inactive = no such curve, though single readings can be large or run the other way; further: potency means the concentration at half of the fitted maximal effect; the source files actives as falling curves though it sought activators and does not explain the sign; nearly all actives have a fitted effect of over 65% in size; many hits overshoot -100%
# Target sequence (P80244 whole entry, looked up): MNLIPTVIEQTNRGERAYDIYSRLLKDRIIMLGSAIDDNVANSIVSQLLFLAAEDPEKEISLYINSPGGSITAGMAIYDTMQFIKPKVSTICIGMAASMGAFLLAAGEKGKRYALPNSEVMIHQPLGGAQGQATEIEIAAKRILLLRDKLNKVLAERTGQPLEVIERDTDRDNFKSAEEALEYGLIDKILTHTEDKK
#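 FRET quenching reversal measured ClpP activation: 10 microg/mL B. subtilis ClpP at pH 8 with the FRET-FV decapeptide, read at 430 nm after 320 nm excitation. The 20-min minus 0-min signal was scaled between DMSO/no-enzyme wells and ADEP (5.8 microM final).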
# Menin MLL FP FL – qHTS Assay for Inhibitors Targeting the Menin-MLL Interaction in MLL Related Leukemias: Competition With Fluorescein Labeled MLL-derived Peptide | Fluorescence polarization, fluorescein-MLL peptide displacement from menin | FP activity change, % at 61.4 µM | 290,000 tested, under 10 active | AID 1766, 2009; inconclusive = falling polarisation curve, or a change in total fluorescence; inactive = total fluorescence flat and polarisation flat or rising; no compound was filed as active; the % refers to the polarisation; negative = inhibition;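 further: % of control where 0% means no effect; inhibitors lower the polarisation; unlabelled MLL peptide was the positive control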
# An asterisk follows results filed as active; ? = inconclusive; . = not tested or not shown; & = joins results of further samples; [ ] = another dose, or the depositor's remark. Not all compounds are listed; the hit share may differ from the screen's.
SMILES,TRPV1 potentiator,gsp ag,TRPML1 inh,Sfp inh,gsp antagonist,ClpP mod,Menin MLL FP FL
Cc1c(N=Cc2c(O)n(CCc3ccc(F)cc3)c(=O)[nH]c2=O)c(=O)n(-c2ccccc2)n1C,-3,3%,0,11%,-12%,0.1%,1.5
Clc1cccc(Cl)c1NC1=NCCS1,.,?,1,.,.,0.2%,.
O=C(O)c1cccc(N=Nc2c(O)[nH]c(=O)[nH]c2=O)c1,9,20%,.,-1%,3%,1.4%,3.1
COc1ccc(-n2nc(C(=O)NCC(=O)N3CCC4(CC3)OCCO4)c3ccccc3c2=O)cc1OC,1,?,26,19%,4%,.,-4.7
CN1CCN(c2ccc(C=O)cc2)CC1,1,0%,18,25%,9%,-9.1%,-0.7
COc1ccc(Cn2c(O)c(/C=N/NC(=O)c3ccccc3)c(=O)[nH]c2=O)cc1,-13,-31%[inhibitor],-7,23%,3%,?,14
CN1C(=O)C(Cc2cccc3ccccc23)C(=O)N(C)C1=O,23,-43%[inhibitor],-7,-46%,-4%,30%,4.6
CCOP(=O)(OCC)C(C)(C)NC(=O)C(Cl)(Cl)Cl,-3,3%,-4,8%,6%,1.9%,0.6
CC(CN(C)C1CCN(C)CC1)c1ccccc1 (stereo not given),6,8%,-12,0%,-2%,1.0%,-5.2
CS(=O)(=O)c1ccc(C2=C(CNC(=O)c3cccnc3)[C@H]3CC[C@@H](C2)N3Cc2ccco2)cc1,.,28%,-12,.,.,0.4%,.
CCOC(=O)C1(CCOc2ccccc2)CCN(C2Cc3ccccc3C2)CC1,1,-6%[15.4 µM],-8,12%,-7%,.,-0.6
CCOC(=O)CC1c2ccccc2-n2nncc2CN1CC1CCCCC1 (stereo not given),.,1%,-5,.,.,0.8%,.
O=P(Oc1ccccc1)(Oc1ccccc1)c1ccccc1,-13,-9%,1,-17%,-15%,1.1%,4.1
COc1ccc(C=C2C(=O)N(C)C(=O)N(C)C2=O)cc1COc1ccc(NC(C)=O)cc1,3,-21%[15.4 µM],-2,40µM*,7%,.,9.9
N[C@@H](Cn1oc(=O)[nH]c1=O)C(=O)O,.,.,6,45µM*,-7%,1.3%,-2.2&157
OCC[N+]12CCC(CC1)C(C(O)(c1ccccc1)c1ccccc1)C2 (stereo not given),1,0%[15.4 µM],27,-7%,-1%,-46%,3.9
CCCCCn1c(=O)c(C(=O)Nc2c(C)n(C)n(-c3ccccc3)c2=O)c(O)c2ccccc21,-1,16%,3,0%,7%,-0.6%,-0.7
O=C(O)c1ccc(-[n+]2c(-c3ccccc3)cc(-c3ccccc3)cc2-c2ccccc2)cc1,11,?,-10,.,1%,-15%,.
CN1CCC(N(C)c2ccc(C(N)=O)cc2[N+](=O)[O-])CC1,3,3%[15.4 µM],-4,-2%,14%,.,-2.6
CN1C(=O)C(Cc2ccccc2)C(=O)N(C)C1=O,.,8%,-9,.,-3%,-2.4%,.
CC(C)=CCOc1c2occc2cc2ccc(=O)oc12,-15,23%,24,8%&-1%,-3%,-2.2%,-2.2&1.4
CCOC(=O)c1nc2ccccc2c(=O)n1-c1ccc(C)cc1C,-5,2%,2,-15%,-2%,-14%,2.5
CCCSc1nc(O)c(CC)c(=O)n1C(C)CC (stereo not given),6,-14%,-1,6%,-12%,-0.5%,4.7
CN1CCN(c2ncnc3ccc(Br)cc23)CC1,-2,?,-4,10%,21%,0.3%,3.5
N#Cc1ncc(N=Cc2ccc(N(CCCl)CCCl)cc2)s1,.,7%[15.4 µM],-6,.,-13%,0.7%,.
CCOc1ccc(-n2c(O)c(N=Nc3c(C)n(C)n(-c4ccccc4)c3=O)c(=O)[nH]c2=O)cc1,-2,7%[15.4 µM],-12,45µM*,-8%,.,8.6
Nc1nc2n(n1)C(c1cccs1)CC(c1ccc(Br)cc1)N2 (stereo not given),10,-17%,3,-1%,-23%,-23%,4.5
CNP(=S)(NC)OCCOc1ccc(OC)cc1,10,-3%,-9,6%,5%,-2.3%,2.7
COc1ccc(Cl)cc1NC1=NCC(C)S1 (stereo not given),1,-22%,-2,10%,11%,-1.4%,-2.1
Cc1ccc(C(=O)Nc2ccc(Cl)cc2C(=O)c2ccccc2)cc1,.,12%,-18,.,-8%,0.8%,.
O=c1c2ccccc2c(C=Nc2ccc(O)cc2)c(O)n1Cc1ccccc1,-3,-2%[15.4 µM],44,1%,-12%,.,?
O=C(c1ccco1)N1Cc2ccccc2-n2nncc2C1,.,6%,-7,.,.,-0.2%,.
O=P1(Nc2cccnc2)COc2ccccc2OC1,-7,4%,-5,3%,1%,2.0%,1.9
O=C(NCc1cccnc1)C(Cl)(Cl)Cl,-4,-25%,2,14%,10%,-0.5%,2.9
COc1ccc(CCn2c(O)c(C=Nc3ccccc3F)c(=O)[nH]c2=O)cc1OC,-8,11%,-1,-9%,13%,.,17
N#CC1(c2ccccc2)CCN(C2CC(=O)N(c3ccc4c(c3)OCO4)C2=O)CC1 (stereo not given),-1,-30%,-19,?,-18%,-0.6%,-1.3
CN(C)c1ccc(/C=C2\C(=O)NC(=O)N(CCc3ccc(F)cc3)C2=O)cc1,11,6%,15,-18%,3%,-1.4%,?
COc1ccc(NS(=O)(=O)c2cc(N=Nc3c(O)[nH]c(=O)[nH]c3=O)ccc2OC)cc1Br,.,-70%[inhibitor],5,.,.,1.5%,.
O=C(Nc1ccc2ccccc2c1)N1C[C@H]2C[C@@H](C1)c1cccc(=O)n1C2,17,29%,11,-11%,-6%,-24%,0.1
CCOc1ccc2[nH]c(=O)c(CN(CCO)C3(c4nnnn4C4CCCCC4)CCCCC3)cc2c1,14,-1%,38,-18%,-10%,-30%,5.3
CCOC(=O)C1(c2ccccc2)CCN(CCC(=O)Nc2ccc(C(=O)OC)cc2)CC1,-10,-35%[inhibitor],-1,.,5%,0.1%,.
CC(=O)N1CN2CN(C(C)=O)CC(C(=O)c3ccc([N+](=O)[O-])cc3)(C2)C1,16,4%,-15,10%,2%,.,0.5
N=C1c2ccccc2CN1NC(=O)c1ccc(Br)o1,8,-10%,7,4%,-12%,0.4%,0.9
O=C1/C(=C\c2ccc(Cl)cc2Cl)N2CCC1CC2,-3,14%[15.4 µM],41,-7%,-15%,0.7%,2.0
CC(C)OCCCNC(=O)c1c(N)n(Cc2cccs2)c2nc3ccccc3nc12,-11,-25%,1,?,4%,10µM*,?
CCC(C#N)(CC)P(=S)(c1ccccc1)c1ccccc1,-10,?,9,?,-16%,-1.3%,9.6
O=C(c1cc2ccccc2oc1=O)N1CCC2(CC1)OCCO2,-6,0%,-3,1%,8%,-16%,1.4
C=CCn1c(O)c(C=NCCN2CCNCC2)c(=O)[nH]c1=O,-9,-27%,9,5%,8%,-7.5%,-0.6
CNC(=O)c1cccn(Cc2ccc(C(F)(F)F)cc2)c1=O,-2,-7%[15.4 µM],-1,9%,1%,.,-4.2
COC(=O)C(O)(c1ccc(N(C)C(=O)COc2ccccc2)cc1)C(F)(F)F (stereo not given),-13,-2%,8,2%,7%,-0.5%,5.2
CS(=O)(=O)c1ccc(C2=C(CNC(=O)c3ccc([N+](=O)[O-])cc3)[C@H]3CC[C@@H](C2)N3Cc2ccccc2)cc1,.,-41%[inhibitor],-4,.,.,-1.5%,.
COc1ccc(CN2CCCC(C(=O)c3ccc(Cl)cc3)C2)c(OC)c1 (stereo not given),-2,15%[15.4 µM],8,10%,13%,2.4%,-1.7
Cc1ccc(C(=O)N2CC2C)cc1 (stereo not given),.,-2%[15.4 µM],10,.,8%,-2.6%,.
O=c1c2ccccc2nc(N2CCCC2)n1-c1ccccc1,-4,27%,6,18%,-12%,3.7%,-0.1
COc1ccc(CC2C(=O)N(C)C(=O)N(C)C2=O)c(OC)c1,0,-4%[15.4 µM],1,-22%,7%,-2.2%,0.8
CC(C)OC(=O)c1c(N)n(CC2CCCO2)c2nc3ccccc3nc12 (stereo not given),4,-10%,4,16%,-21%,-8.2%,0.7
O=c1c2ccccc2nc(-c2ccoc2)n1-c1ccccc1,5,-9%,7,4%,-17%,-1.4%,2.5
COc1cc(C(=O)OC2C[C@H]3CC[C@@H](C2)N3)ccc1O (stereo not given in full),28,4%,13,7%,-2%,-15%,?
CN(Cc1ccccc1)C(=O)Cn1c(=O)oc2cc(S(=O)(=O)NCc3ccccc3)ccc21,18,5%,2,25%,?,2.3%,0.1
O=P(Oc1ccccc1)(Oc1ccccc1)C(O)c1ccc(Cl)cc1 (stereo not given),?,-5%,10,.,9%,1.3%,.

# The list continues.
SMILES,TRPV1 potentiator,gsp ag,TRPML1 inh,Sfp inh,gsp antagonist,ClpP mod,Menin MLL FP FL
CCCCOC(=O)COc1cc(C)cc2oc(=O)c3c(c12)CCC3,-7,1%,21,-10%,-3%,?,-1.7
O=C(O)C1C2CCC(O2)C1C(=O)NC1CCCCC1 (stereo not given),0,-21%,10,-4%,-10%,-1.2%,1.3
O=S(=O)(NCC(c1cccnc1)N1CCN(c2ccc(F)cc2)CC1)c1ccccc1 (stereo not given),.,-31%[inhibitor],14,.,2%,-0.2%,.
CCOc1ccc(NC(=O)c2c(O)[nH]c(=O)[nH]c2=O)cc1,.,.,14,.,8%,2.0%,.
CC(C)[C@H](N)C(=O)OCCOCn1cnc2c(=O)[nH]c(N)nc21,2,.,1&13,18%,-2%&-2%,-2.4%&0.3%,?
O=C(c1cc(-c2ccccc2)nc2ccccc12)N1CCC2(CC1)OCCO2,-26,-4%,16,10%,0%,-6.1%,1.1
NC(=O)c1cc(N2CC2)c([N+](=O)[O-])cc1[N+](=O)[O-],.,.,18,.,1%,2.3%,3.9
CCOP(=O)(CN(CC)CCNP(=O)(OCC)OCC)OCC,27,?,10,20%,0%,-23%,-0.7
